Compound activity deposited in PubChem BioAssay by National Center for Advancing Translational Sciences (NCATS).
N370S GC mod – qHTS Assay for Inhibitors and Activators of N370S glucocerebrosidase as a Potential Chaperone Treatment of Gaucher Disease; AID 2101, 2009; actives 0.092% (n = 330,000); N370S GC spleen homogenate, 4MU-glucoside fluorescence; Lysosomal acid glucosylceramidase (Homo sapiens), P04062; Potency, µM (doses to about 59.4 µM), inactives show at the top dose activity change, negative = inhibition, most hits filed as inhibitors;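 also: 0% = full enzyme activity and -100% = no enzyme basal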
KAT2A inh – qHTS Assay for Inhibitors of GCN5L2; AID 504327, 2011; actives 0.21% (n = 390,000); Potency, µM (highest dose often 58.9 µM), without a hit: at the top dose activity change, negative = inhibition, usual class: inhibitors; GCN5L2 HAT assay, ThioGlo1 CoA-SH fluorescence
Target sequence (Q92830 whole entry, looked up): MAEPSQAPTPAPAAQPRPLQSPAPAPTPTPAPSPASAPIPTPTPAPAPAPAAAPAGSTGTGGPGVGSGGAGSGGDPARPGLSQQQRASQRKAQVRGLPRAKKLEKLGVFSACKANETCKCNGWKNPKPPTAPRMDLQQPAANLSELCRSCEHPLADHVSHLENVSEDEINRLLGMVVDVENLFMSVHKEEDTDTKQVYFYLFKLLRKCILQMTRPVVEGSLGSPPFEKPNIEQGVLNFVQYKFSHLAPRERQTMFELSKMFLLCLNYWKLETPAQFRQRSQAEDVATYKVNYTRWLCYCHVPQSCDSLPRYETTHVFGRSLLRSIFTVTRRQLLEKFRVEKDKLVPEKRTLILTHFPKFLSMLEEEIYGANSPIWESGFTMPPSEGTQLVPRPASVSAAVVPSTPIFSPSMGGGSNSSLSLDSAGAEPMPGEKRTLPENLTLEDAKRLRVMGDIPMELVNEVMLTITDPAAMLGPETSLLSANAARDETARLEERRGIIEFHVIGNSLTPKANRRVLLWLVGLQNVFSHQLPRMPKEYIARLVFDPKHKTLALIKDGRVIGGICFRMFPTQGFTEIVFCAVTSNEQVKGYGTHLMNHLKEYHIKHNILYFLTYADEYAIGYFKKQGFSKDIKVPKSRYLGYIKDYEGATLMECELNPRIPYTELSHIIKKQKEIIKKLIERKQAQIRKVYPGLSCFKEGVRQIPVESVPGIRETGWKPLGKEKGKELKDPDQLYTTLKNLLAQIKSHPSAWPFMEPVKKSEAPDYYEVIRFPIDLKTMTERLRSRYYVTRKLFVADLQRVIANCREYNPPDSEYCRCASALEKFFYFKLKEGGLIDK
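Enzyme at 20nM final was mixed with library compounds for 15 min at room temperature. Peptide H3(1-25) at 75uM, acetyl-CoA at 70uM and ThioGlo1 at 50uM were then added. Plates were read immediately and after 20 min (Ex340nm/Em540nm).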
* marks the source's active call; other numbers are inactive results; ? = inconclusive; / = no result given; & = joins results of further samples; [ ] = dose if it differs, or a comment. Calls follow the shape of the dose curve; as a rule, active = well fitted curve in the direction sought with a large enough effect; inconclusive = small, poorly fitted or top-dose-only effect, or another doubt; inactive = no such curve, though single readings can be large; an effect the other way counts as inactive or inconclusive. Unless noted, % is scaled to controls: 0 for no effect and ±100 for the full control effect; potency is read from the fitted curve at half-maximal effect. These rows are one share of the data, and most or all hits are left out here.

Order of values: N370S GC mod, KAT2A inh
- CCCCN(C(=O)c1ccc(S(=O)(=O)N(C)C)cc1)c1nc2ccccc2s1
 : 16%, 1%
- O=C(NCC(=O)c1ccccc1)OCc1ccc([N+](=O)[O-])cc1
 : 1%, -2%
- O=C(O)Cc1ccc2oc(-c3ccccn3)nc2c1
 : -6%, -7%
- CC(=O)c1cccc(Nc2ncnc3ccc(Br)cc23)c1
 : -18%, -4%
- Cc1cc2n(n1)SC(Nc1ccc(F)cc1)N2 (stereo not given)
 : 8%, 1%
- CCCCNC(=O)CCC(=O)Nc1ccc2nc(N3CCOCC3)cc(C)c2c1
 : 10%, -9%
- Cc1nc2ccc(C(=O)N/N=C/c3ccc(O)cc3)cc2[nH]1
 : -14%, -8%
- Cn1c(=O)c2c(nc(Br)n2C/C=N/NC(N)=S)n(C)c1=O
 : -4%, -2%
- CCOC(=O)CC(NC(=O)c1cc2ccccc2oc1=O)c1cccc([N+](=O)[O-])c1 (stereo not given)
 : 16%, -3%
- O=C(NCC1CCCO1)C(c1cccnc1)N(C(=O)Cc1cccs1)c1ccccc1 (stereo not given)
 : 8%, ?
- Cc1ccc(C2C(C#N)=C(N)Oc3nc(-c4ccccc4)[nH]c32)o1 (stereo not given)
 : -3%, 0%
- O=C(c1cc2ccccc2oc1=O)N(Cc1ccco1)C1CCS(=O)(=O)C1 (stereo not given)
 : -17%, -1%
- CN(CC(=O)NC(=O)NCc1ccccc1)Cc1ccc(Cl)c(Cl)c1
 : -7%, -9%
- CCc1nc2ccccc2c(C(=O)OCC(=O)NC(=O)c2cccn2C)c1C
 : 0%, -4%
- CC1c2cccn2CCN1S(=O)(=O)c1ccc(F)cc1 (stereo not given)
 : /, -4%
- Nc1nonc1-n1nnc(C(=O)N/N=C/c2ccc(F)cc2)c1-c1ccc2c(c1)OCO2
 : -3%, 0%
- COc1ccc(NC(=O)CCSCCc2ccccn2)cc1OC
 : -16%, -12%
- CNC(=S)N(Cc1ccc(Cl)cc1)Cc1cccs1
 : 8%, 2%
- Cc1nnc(SCCCCSc2nnc(C)c(=O)[nH]2)[nH]c1=O
 : 23%, -5%
- CSc1nnc(CCNS(=O)(=O)c2ccc(Br)cc2)n1C
 : -19%, 1%
- O=C(O)CCSc1nnnn1-c1ccccc1
 : -7%, -2%
- Cc1cc(NC(=O)CCC(=O)N(c2ccc(F)cc2)C(C(=O)NC2CCCC2)c2ccc(C)o2)no1 (stereo not given)
 : 5%, 19%
- O=C(CNS(=O)(=O)c1ccccc1F)NNC(=O)c1ccc(Br)cc1
 : -20%, -2%
- O=C(C1CCCCC1)N1CCN(c2ccccc2F)CC1
 : 30%, 3%
- O=C(COc1ccccc1C(=O)NCC1CCCO1)Nc1ccc(Cl)cc1Cl (stereo not given)
 : ?, -3%
- O=C(NC1CCSc2ccccc21)c1cccc([N+](=O)[O-])c1 (stereo not given)
 : 2%, -3%
- CC1(NC(=O)N2CCOCC2)CCS(=O)(=O)C1 (stereo not given)
 : -9%, -3%
- N#CC(Sc1ccccn1)c1ccc(Cl)cc1Cl (stereo not given)
 : 10%, -7%
- CCN(CC)c1cc(C)c2cc(NC(=O)c3cccs3)ccc2n1
 : ?, -18%
- CCOCc1c(C(=O)NCc2ccccc2CN2CCCC2)oc2ccccc12
 : /, -1%
- Cc1cc(=O)oc2cc(NC(=S)NNC(=O)c3c(Cl)cnn3C)ccc12
 : -6%, -16%
- CSc1nsc(/C=C/Nc2ccc(Cl)cc2)c1C#N
 : 0%, ?
- O=C(COC(=O)c1ccc(S(=O)(=O)NCc2ccco2)cc1)Nc1ccccc1OC(F)F
 : -1%, -26%
- CCOC(=O)c1cnc2ccc(OCC)cc2c1NCCN1CCOCC1
 : -16%, -8%
- O=C1c2ccccc2C(Nc2ccc(S(=O)(=O)N3CCOCC3)cc2)N1c1ccccn1 (stereo not given)
 : 3%, -8%
- CCCCNC(=S)NNC(=O)c1ccncc1
 : 13%, -8%
- CCOC(=O)c1c(C)[nH]c(N=Nc2cc(C(=O)O)cc(C(=O)O)c2)c1C
 : -12%, -21%
- O=C(CP(=O)(c1ccccc1)c1ccccc1)Nn1cnnc1
 : -1%, 4%
- CS(=O)(=O)N(Cc1ccccc1)c1ccc(C(=O)NN=C2CCCCCC2)cc1
 : 6%, -1%
- COc1ccc(CCN2C(=O)CC(C(N)=O)SC2=Nc2ccc(F)cc2)cc1OC (stereo not given)
 : -1%, -3%
- Cc1noc(/C=C/N(C)C)c1S(=O)(=O)N1CCCC(C(=O)Nc2ccccc2F)C1 (stereo not given)
 : -6%, -4%
- O=C(CN(Cc1ccco1)C(=O)CCC(=O)Nc1ccccn1)NCc1ccccc1
 : -3%, -2%
- CNC(=O)c1c(C)nn(-c2ccc(F)c(Cl)c2)c1-c1cc(C)on1
 : 2%, -8%
- COc1ccc(/C=C/c2nc(C#N)c(NC3CCCCC3)o2)cc1OC
 : /, -8%
- CCN(CC)S(=O)(=O)c1cccc(NC(=O)COc2ccc(Cl)cc2Br)c1
 : 9%, -7%
- Cc1ccc(C2=NNC(=O)C(c3ccc(Cl)cc3)C2)cc1 (stereo not given)
 : 2%, 2%
- COc1cccc(C2C(C(N)=O)=C(C)Nc3nc(CCCO)nn32)c1OC (stereo not given)
 : 3%, -2%
- COc1cccc(NC(=O)Nc2ccc(Cc3ccncc3)cc2)c1
 : 8%, -7%
- COc1ccccc1S(=O)(=O)CC(O)COc1ccccc1Cl (stereo not given)
 : -9%, 0%
- COc1cc(/C=C(\C#N)C(=O)NCC2CCCO2)c([N+](=O)[O-])cc1OC (stereo not given)
 : 1%, -7%
- CC(=O)Nc1ccc(NC(=O)c2cccc3c2-c2ccccc2C3=O)cc1
 : -14%, -13%
- CC(C)c1csc(CN2CCN(Cc3ccccc3)C(CCO)C2)n1 (stereo not given)
 : -13%, -2%
- COc1ccc(OC(C)C(=O)Nc2ccccc2F)cc1 (stereo not given)
 : -7%, 0%
- CCOC(=O)c1sc(NC(=O)c2ccc(S(=O)(=O)N(C)C)cc2)cc1C
 : 27%, -19%
- Cc1cccc(C(=O)NC2=NC(c3ccc(Cl)cc3)CC(=O)N2)c1 (stereo not given)
 : /, -9%
- O=C(NCCCO)C(=O)NCCc1ccc(Cl)cc1
 : -5%, -1%
- CCN(CC)S(=O)(=O)c1ccc(OC)c(NC(=O)CSCc2c(C)noc2C)c1
 : /, -7%
- CC(C)(Cl)C1Cc2cc3ccc(=O)oc3cc2O1 (stereo not given)
 : 11%, -1%
- O=C(O)C1CCCCC1C(=O)Nc1cnn(Cc2ccccc2)c1 (stereo not given)
 : 9%, 2%
- O=C(O)C1CCCCC1C(=O)OCCCCOC(=O)C1CCCCC1C(=O)O (stereo not given)
 : -2%, -3%

The results go on:
Order of values: N370S GC mod, KAT2A inh
- Cc1cnc(NC(=O)CSc2ncn(-c3ccccc3)n2)s1
 : 9%, -11%
- COc1ccccc1OCc1ccc(C(=O)N2N=C(C(F)F)CC2(O)C(F)F)o1 (stereo not given)
 : -1%, -2%
- COc1ccc(C)cc1NS(=O)(=O)c1ccc2c(c1)oc(=O)n2C
 : -4%, 0%
- CN1CCN(C(=O)c2ccc3c(c2)N(Cc2ccccc2F)C(=O)c2ccccc2S3=O)CC1 (stereo not given)
 : -8%, 7%
- NC(=O)CC(NC(=O)Cc1ccc(Cl)cc1)c1ccc(NC2CC3CCC2C3)c([N+](=O)[O-])c1 (stereo not given)
 : 0%, -8%
- COc1ccc(CN(C)C(=O)c2cccc(C(=O)N(C)Cc3ccc(OC)cc3)c2)cc1
 : -1%, -13%
- N#Cc1ccc(CSc2ccccn2)c(Cl)c1
 : 3%, -2%
- CCN(CC)C(=O)Cn1c(=O)n(-c2ccc(CC(=O)NCc3ccccc3)cc2)c(=O)c2sccc21
 : 2%, 0%
- Cc1cccc(C(=O)N2CCCC(Nc3ccc(C)c(C)c3)C2)n1 (stereo not given)
 : 5%, 1%
- O=C(CCn1cccc1)NCCc1ccc(Cl)cc1
 : 8%, -4%
- O=C(CN1CCN(CCC(=O)Nc2ccccc2F)CC1)Nc1ccc(Cl)cc1
 : -17%, 8%
- O=C(Cn1[nH]c(=O)c2ccccc2c1=O)Nc1cccc(-c2nnc3n2CCCCC3)c1
 : 2%, 9%
- CCCc1cc(C(=O)Nc2cc(C)nn2-c2ccccc2)no1
 : 7%, -4%
- Cc1ccccc1C(=O)N1CCC(C(=O)O)CC1
 : -2%, -1%
- CCSC1=C(C#N)C(c2ccccc2OC)CC(=O)N1 (stereo not given)
 : -4%, -3%
- CCCc1cc(=O)n2[nH]c(NCc3cccs3)nc2n1
 : 7%, -18%
- COc1ccc(/C=C/C(=O)N(CC(C)C)C2CCS(=O)(=O)C2)cc1 (stereo not given)
 : -1%, -23%
- CN(C)C(=O)N1CCCC(C(=O)NCCc2ccccc2)C1 (stereo not given)
 : -2%, -9%
- CCN1CCN(C(=O)c2ccc(Sc3ccccc3Cl)c([N+](=O)[O-])c2)CC1
 : -1%, 0%
- CC1CCCCN1C(=O)COC(=O)/C=C/c1ccc2ccccc2n1 (stereo not given)
 : 1%, -4%
- Cc1onc(-c2ccccc2)c1C(=O)N1CCC(C)CC1
 : 2%, 3%
- CCCCn1c(N)c(N(CCOC)C(=O)c2cc(CC)c(C)s2)c(=O)[nH]c1=O
 : 0%, 1%
- Cc1ccc(NS(=O)(=O)c2cccc(C(=O)O)c2)cc1S(=O)(=O)N1CCCCC1
 : 1%, -3%
- COc1ccc(Cl)cc1NC(=O)CSc1nnc(-c2ccncc2)n1CC1CCCO1 (stereo not given)
 : 5%, -6%
- CN1CCN(CC(O)COc2ccc(OCC(O)CN3CCN(C)CC3)cc2)CC1 (stereo not given)
 : -11%, -2%
- O=C1NC(c2cn(-c3ccccc3)nc2-c2cccs2)C(C(=O)c2cccnc2)C(O)(C(F)(F)F)N1 (stereo not given)
 : -1%, -1%
- CC1CN(C(=O)c2ccncc2)CC(C)O1 (stereo not given)
 : 9%, -24%
- C=CCNC(=O)c1sccc1Oc1ccc(F)cc1[N+](=O)[O-]
 : 8%, -8%
- CCc1ccc(-c2csc3nc[nH]c(=O)c23)cc1
 : -2%, -5%
- CCN1C(=NCCc2c[nH]c3ccccc23)N[C@@H](c2ccccc2)[C@H](C(=O)OC)[C@H]1C
 : 3%&-3%, 0%&5%
- COc1ccc(NC(=O)NNC(=O)COc2cc(C)c(Cl)c(C)c2)c(OC)c1
 : -14%, -1%
- c1ccc(Nc2ccccn2)nc1
 : -9%, -1%
- COc1cc(CC(=O)Nc2nc(C)cs2)cc(OC)c1OC
 : 1%, -14%
- CC1(C)Cc2cccc(OCC(=O)NCc3ccc(F)cc3)c2O1
 : /, -1%
- CCOc1ccc(NC(=O)CNC(=O)c2cccs2)cc1
 : -5%, -21%
- Cc1ccc(S(=O)(=O)N2CCN(c3cnn(-c4ccccc4)c(=O)c3Cl)CC2)cc1
 : 3%, 0%
- NNc1nc(-c2ccccc2Cl)c2cc(Br)ccc2n1
 : -10%, -8%
- CCc1ccc(C(=O)CSc2nc3ccccc3c(=O)[nH]2)cc1
 : 8%, -3%[0.501 µM]
- COc1cc(/C=N/NC(=O)C(C)Nc2n[nH]c(=O)[nH]c2=O)ccc1O (stereo not given)
 : ?, -1%
- CCOc1ccc(C(=O)N2CCC(C(=O)c3ccc4c(c3)OCCO4)CC2)cc1
 : 9%, 0%
- CCCCCCNS(=O)(=O)c1ccc(OC)c(OC)c1
 : 1%, -17%
- Cn1c(=O)c2sccc2n2c(CCCC(=O)NCc3ccco3)nnc12
 : 14%, -11%
- Cc1ccc(-c2nc(CN(Cc3c(C)nn(C)c3C)C(C)C)c(C)o2)o1
 : -4%, 9%
- O=C(Oc1ccc(-c2cnc3ccccc3n2)cc1)c1cccc([N+](=O)[O-])c1
 : 1%, -6%
- CCOC(=O)N1CCN(CC(=O)NC(=O)Nc2ccc3c(c2)OCCO3)CC1
 : -3%, -2%
- CCNC(=O)c1ccc(NC(=O)N2CCCCc3ccccc32)cc1
 : /, -3%
- CC(C)N=C(NC#N)SCc1ccccc1
 : 7%, -6%
- O=c1[nH]cnc(O)c1C(c1ccc2c(c1)OCO2)c1c(O)nc[nH]c1=O
 : -3%, 0%
- Cn1nc(C(=O)N2CCN(c3ccccc3)CC2)c2c1-c1ccccc1S(=O)(=O)C2
 : -5%, -6%&-4%
- O=C(NC1CC(=O)N(c2ccccc2)C1)c1ccco1 (stereo not given)
 : /, 0%
- COc1ccc(CCNC(=O)c2cccc(S(=O)(=O)N3CCOCC3)c2)cc1OC
 : /, -6%
- COc1ccc2[nH]c(C(=O)N3CCc4ccccc4C3)c(C)c2c1
 : -7%, -7%
- O=C(Nc1nccs1)c1ccc(Cl)c(S(=O)(=O)N2CCOCC2)c1
 : -19%, -1%
- COC(=O)c1ccc(NC(=O)COc2ccc(S(=O)(=O)N3CCCCC3)cc2)cc1
 : 12%, -1%
- O=C(NNC(=O)c1ccccc1O)c1ccc(Cl)cc1
 : 3%, -2%
- Cn1ncc([N+](=O)[O-])c1C(=O)Nc1ccc(Cl)cc1
 : -10%, -15%

Profiles, looked up by structure:
`Cc1ccc(-c2nc(CN(Cc3c(C)nn(C)c3C)C(C)C)c(C)o2)o1` as listed: N370S GC mod = -4%; KAT2A inh = 9%
`O=C(Nc1nccs1)c1ccc(Cl)c(S(=O)(=O)N2CCOCC2)c1` as listed: N370S GC mod = -19%; KAT2A inh = -1%
